Screening results as filed in PubChem.
Ecoli rRNA inh = reduced GFP signal of wild-type E. coli, primary screen, bacterial rRNA inhibitor project, GFP/RFP fluorescence, OD600, single point | E. coli WT GFP vs humanized-ribosome RFP mutants, 24 h; active compounds read low; DMSO median 0, no signal -100 | GFP signal change (wild-type ribosome), % (test concentration not listed) | hit rate 1.6% among 350,000;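 active = significant combined selectivity score with lowered wild-type GFP, culture density cut under 30%, mutant RFP and density less affected; inactive = any of these conditions unmet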; note: one replicate is shown; some compounds called inactive have numbers as strong as hits
Vif A3G = inhibitors of Vif binding to APOBEC3G peptide, primary screen, biochemical, TR-FRET, GST-Vif 1-94, biotin-A3G peptide, dose response retest (AID 1117319); hit rate 0.57% among 260,000; inhibition, %, or IC50 in µM where a hit was titrated; TR-FRET GST-Vif / biotin-A3G peptide binding; higher % means a stronger effect; test concentration not given here; strong numbers were not always called active; Virion infectivity factor (Human immunodeficiency virus type 1 group M subtype B (isolate …;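 active = above the screen mean plus three standard deviations and confirmed in dose response; inconclusive = results disagree or hit not tested in dose response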;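 note: Vif residues 1-94 fused to GST binding biotinylated APOBEC3G peptide 110-148; 0% = full assay without inhibitor and 100% = GST in place of GST-Vif; retest series ran down from 100 µM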
ALR H2O2 inh = inhibitors of human ALR sulfhydryl oxidase, primary screen, biochemical, H2O2 detection, HRP-luminol luminescence, single point | FAD-linked sulfhydryl oxidase ALR (Homo sapiens), P55789 | purified ALR, DTT oxidation | inhibition, % (concentration not given with the values) | hit rate 3.8% among 290,000 | AID 485317, 2010;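 active = mean and each replicate at 75% or more; inconclusive = only one of the two met; inactive = neither met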;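 note: stock transfer was 7.5 nL into about 7.5 µL; 0% = neutral wells and 100% = wells with inactivated enzyme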
AF4-AF9 inh = inhibitors of AF4 peptide binding to AF9, primary screen, biochemical, AlphaScreen, biotin-AF4 peptide, FLAG-AF9, single point; hit rate 0.47% among 350,000; inhibition, % at 10 µM; Protein AF-9 (Homo sapiens), P42568; AID 651704, 2012;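 active = every replicate reaching a set inhibition limit, whatever the replicate mean, cut at about 25% in these data; inconclusive = mean inhibition reaches that limit but some replicates miss it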;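 note: 0% = plate neutral control median and 100% = total signal loss; the record names both 10 and 1 µM as test concentration; the first replicate is given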
Target sequence (P42568 whole entry, looked up): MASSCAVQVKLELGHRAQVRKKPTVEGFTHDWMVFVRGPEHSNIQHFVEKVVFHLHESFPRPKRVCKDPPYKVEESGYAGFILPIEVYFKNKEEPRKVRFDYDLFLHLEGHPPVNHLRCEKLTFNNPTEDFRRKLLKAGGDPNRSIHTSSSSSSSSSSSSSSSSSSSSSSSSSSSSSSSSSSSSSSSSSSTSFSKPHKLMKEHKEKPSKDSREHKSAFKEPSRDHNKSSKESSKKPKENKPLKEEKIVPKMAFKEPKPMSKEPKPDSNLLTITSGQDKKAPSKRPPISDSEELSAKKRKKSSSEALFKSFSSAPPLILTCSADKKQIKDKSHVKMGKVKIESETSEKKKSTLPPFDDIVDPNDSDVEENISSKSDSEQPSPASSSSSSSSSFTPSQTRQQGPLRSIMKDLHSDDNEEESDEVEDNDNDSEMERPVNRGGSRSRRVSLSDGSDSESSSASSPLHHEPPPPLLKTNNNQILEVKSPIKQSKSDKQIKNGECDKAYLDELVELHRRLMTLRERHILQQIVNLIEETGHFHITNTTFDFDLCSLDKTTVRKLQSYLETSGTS
Ecoli growth = E. coli growth inhibition, primary screen, OD600. OD600 absorbance (no concentration beside the values). Escherichia coli growth, 23 h; active compounds read low. hit rate 0.21% among 330,000;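 active = OD600 absorbance below the run mean of sample wells minus 3.6 SD, in any replicate, cut at about 0.56 in these data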;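 note: stock transfer was 300 nL into about 60 µL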
FGF22 binding = binders of human FGF22 protein, primary screen, FGF22 synaptogenesis inhibitor project, biophysical, thermal shift, single point; Fibroblast growth factor 22 (Homo sapiens), Q9HCT0; recombinant FGF22 thermal shift, SYPRO orange fluorescence; percent of sucrose octasulfate shift, DMSO zero; calls only at 9.99 µM; hit rate 1.5% among 340,000; AID 651658, 2012;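 active = melting point raised past a set limit in the mean and every replicate; inconclusive = no clear call; three in four hits are not shown here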
HNF4A DNA FP = change in binding of human HNF4A to DNA, primary screen, biochemical, fluorescence polarization, FITC-DNA. 1 h. hit rate 0.3% among 360,000. activity change, % at 10 µM. AID 1224865, 2016; in the data active = activity change above about 30%, passing the limit was not always enough;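 note: controls were the assay level and a saturating level of protein; the project sought stronger binding though the title names inhibitors; some compounds called inactive have numbers as strong as hits; positive values seem to mean higher polarization but the record does not say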
Target sequence (P41235 whole entry, looked up): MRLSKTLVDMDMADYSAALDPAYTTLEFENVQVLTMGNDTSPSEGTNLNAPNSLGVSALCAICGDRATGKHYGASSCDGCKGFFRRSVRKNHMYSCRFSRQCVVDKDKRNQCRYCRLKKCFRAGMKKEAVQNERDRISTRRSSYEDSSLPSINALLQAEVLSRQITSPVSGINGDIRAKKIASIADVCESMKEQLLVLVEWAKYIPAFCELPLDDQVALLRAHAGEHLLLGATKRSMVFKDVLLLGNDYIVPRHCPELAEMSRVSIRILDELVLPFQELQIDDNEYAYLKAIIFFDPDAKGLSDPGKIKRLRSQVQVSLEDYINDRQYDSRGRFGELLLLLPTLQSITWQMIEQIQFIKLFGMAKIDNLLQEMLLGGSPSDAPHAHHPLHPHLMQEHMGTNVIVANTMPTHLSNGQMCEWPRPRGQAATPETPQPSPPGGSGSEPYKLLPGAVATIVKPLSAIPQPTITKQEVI
Ecoli rRNA inh OD600 = also measured in Ecoli rRNA inh; calls as there; OD600 change, %; measured here: OD600 growth;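 optical density of the mix in the first replicate; 0 = DMSO median and -100 = no signal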
Ecoli rRNA inh RFP = recorded beside Ecoli rRNA inh, whose call it bears; RFP signal change, %; measured here: RFP humanized mutant strains;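 first replicate; 0 = DMSO median and -100 = no signal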
An asterisk follows results filed as active; i = inactive; u = inconclusive; x = no result given; & = joins results of further samples. Some of the compounds tested, so the mix of outcomes need not match the whole.

SMILES	Ecoli rRNA inh	Ecoli rRNA inh OD600	Ecoli rRNA inh RFP	Vif A3G	ALR H2O2 inh	AF4-AF9 inh	Ecoli growth	FGF22 binding	HNF4A DNA FP
C[C@@H]1CCCCO[C@H](CN(C)C(=O)Nc2cccc3ccccc23)[C@H](C)CN([C@@H](C)CO)C(=O)c2cc(NC(=O)Nc3ccc(F)cc3)ccc2O1	3	1	0.6	x	x	-1.1	x	i	x
CN(C)CCN(C(=O)c1cccc(N2C(=O)CCC2=O)c1)c1nc2ccc(Br)cc2s1	x	x	x	-7%	-5	4.0	0.71	i	-2.2
Cc1ccc(C(=O)N2CCC3CC2c2cc(-c4ccc5c(c4)OCO5)ccc23)cc1 (centres undefined)	-3	1	0.7	-4%	x	0.0	x	i	3.2
C[C@H](CO)N1C[C@H](C)[C@H](CN(C)Cc2ccncc2)Oc2cc(C#CC3CC3)ccc2S1(=O)=O	-1	-16	4.3	x	x	4.3	x	i	x
NNC(=O)CSc1c(-c2cccs2)[nH]c2ccccc12	x	x	x	-5%	u	x	0.68	x	-1.6
Cc1nn(C(=O)C(C)N2C(=O)c3ccccc3C2=O)c(C)c1Br (centres undefined)	x	x	x	-4%	x	x	0.74	x	-1.3
O=C(Cn1cnc2c(oc3ccccc32)c1=O)NCCc1ccccc1	x	x	x	x	7	x	0.65	x	-2.0
Brc1ccc(CSc2nnc(Cc3c[nH]c4ccccc34)o2)cc1	x	x	x	8%	-9	x	0.65	x	-1.6
O=[N+]([O-])c1ccc(Sc2ccccn2)nc1	x	x	x	7%	-20	-5.4	0.71	i	-0.4
CC(=O)Nc1ccc(S(=O)(=O)NCC(=O)OCC(=O)NNC(=O)c2ccccc2)cc1	x	x	x	-5%	0	-2.7	0.65	i	6.7
CCCC(=O)N1CC2(CCN(C(=O)NC(C)C)CC2)c2c([nH]c3cc(OC)ccc23)[C@H]1CO	3	21	-2.6	x	x	-1.0	x	i	x
O=C(Nc1c(F)cc(F)cc1Br)c1cc2nc(C(F)F)cc(C(F)F)n2n1	x	x	x	0%	-7	x	0.78	x	0.6
O=C(NCCN1CCN(C(=O)c2cccs2)CC1)C(=O)Nc1ccc(Br)cc1	x	x	x	7%	1	x	0.69	x	-2.3
Cc1cc(NS(=O)(=O)c2ccc(NC(=O)CCN3C(=O)c4ccccc4C3=O)cc2)no1	9	-1	-4.9	2%	-3	8.3	0.76	i	1.0
COc1ccc2ccc(OC)c(/C=N/NC(=O)c3cc4ccccc4o3)c2c1	3	-5	0.6	-3%	x	2.7	x	i	0.8
COc1ccc2nc(N3CCCC(O)C3)c(C#N)cc2c1 (centres undefined)	x	x	x	17%	-9	x	0.66	x	-6.0
O=c1cc(-c2ccc(O)cc2)oc2c(C3O[C@H](CO)[C@@H](O)[C@H](O)[C@H]3O)c(O)cc(O)c12 (some centres undefined)	x	x	x	x	15	-1.5	x	i	-0.5
C=C(C)C1CC=C(C)/C(=N/NC(=O)c2ccoc2C)C1 (centres undefined)	x	x	x	0%	-2	x	x	x	-4.0
Cc1ccc(C2=[N+]([O-])C(C)(C)N(O)C2(C)C)cc1	x	x	x	-2%	13	-1.2	0.73	i	0.2
O=C(O)c1ccc2c(=O)n3c(nc2c1)/C(=C/c1ccccc1OC(F)F)CC3	-14	-30	-15	-5%	x	-4.3	0.69	i	0.3

Reprinted from the part before: 2 compounds, followed by the next part.
SMILES	Ecoli rRNA inh	Ecoli rRNA inh OD600	Ecoli rRNA inh RFP	Vif A3G	ALR H2O2 inh	AF4-AF9 inh	Ecoli growth	FGF22 binding	HNF4A DNA FP
Cc1ccc(C2=[N+]([O-])C(C)(C)N(O)C2(C)C)cc1	x	x	x	-2%	13	-1.2	0.73	i	0.2
O=C(O)c1ccc2c(=O)n3c(nc2c1)/C(=C/c1ccccc1OC(F)F)CC3	-14	-30	-15	-5%	x	-4.3	0.69	i	0.3
CCc1nnc(NC(=O)c2ccc(S(=O)(=O)N3CCCCC3C)cc2)s1 (centres undefined)	x	x	x	8%	-6	x	0.74	x	-1.6
Cc1ccc(C2/C(=C(/O)c3ccc(OC(C)C)cc3)C(=O)C(=O)N2CCN2CCOCC2)cc1 (centres undefined)	x	x	x	7%&-7%	-2	x	0.73	x	2.5
CCCCC(=O)Oc1cc(C)[nH]c(=O)c1[N+](=O)[O-]	13	10	0.1	15%	3	0.2	0.69	i	-0.7
CC1=C(C(=O)Nc2ccccc2)C(c2ccco2)C(C#N)=C(SCC(=O)OC(C)C)N1 (centres undefined)	x	x	x	3%	37	x	0.74	x	-0.2
C[C@@H]1CCCCO[C@@H](CN(C)S(=O)(=O)c2cn(C)cn2)[C@H](C)CN([C@@H](C)CO)C(=O)c2cc(NS(=O)(=O)c3cn(C)cn3)ccc2O1	1	3	0.3	x	x	-9.5	x	i	x
CC(Oc1ccccc1)C(=O)N1CCN=C1SCc1ccc(F)cc1 (centres undefined)	-13	-3	-3.0	19%	96*	0.8	0.66	i	-4.5
Cc1onc(-c2c(F)cccc2Cl)c1C(=O)NC(=S)NC1CCSC1=O (centres undefined)	x	x	x	13%	15	x	0.7	x	2.5
COC(=O)c1cc(S(=O)(=O)N2CCC(C(N)=O)CC2)oc1C	2	3	-1.3	8%	-2	0.8	0.65	i	0.2
C[C@@H]1CN([C@@H](C)CO)C(=O)c2cccc(NS(=O)(=O)c3ccc(F)cc3)c2O[C@@H]1CN(C)C(=O)Nc1ccc(C(F)(F)F)cc1	-8	-8	-1.3	x	x	-1.0	x	i	x
CC(C)NC(=O)Nc1ccc2c(c1)C(=O)N([C@@H](C)CO)C[C@@H](C)[C@@H](CN(C)Cc1ccc(C(=O)O)cc1)OCCCC[C@H](C)O2	2	9	0.1	x	x	-5.0	x	i	x
Cc1noc(C)c1NC(=O)N1C[C@@H](O)COC[C@H]2O[C@@H](CC(=O)NCC3CCCCC3)CC[C@@H]21	4	20	-2.2	x	x	0.1	x	i	x
OC1(c2cccs2)CN(c2ccc(Cl)cc2)C2=[N+]1CCCS2 (centres undefined)	9	7	-2.1	9%	-4	-2.9	0.66	i	0.3
Cc1ccc(NC(=O)CSc2ccc(Br)cc2)cc1S(=O)(=O)N1CCOCC1	-10	-24	4.2	1%	-6	-0.7	0.62	i	1.8
CC(C)(C)c1ccc(-n2ncc3c2CCCC3NC(=O)C2(C(N)=O)CC2)cc1 (centres undefined)	-1	-11	9.4	x	x	-5.1	0.66	i	-4.0
COc1ccc2c(c1)c1nnc(SCC(=O)NC3CC3)nc1n2C	-2	6	-0.5	x	-1	-1.0	x	i	-2.3
O=C(NC[C@@H]1[C@@H](c2ccccc2)[C@@H](CO)N1C(=O)C1CC1)NC1CCCC1	-3	2	-1.0	x	x	-15	x	i	x
Cc1nn(-c2ccccc2)c2c1C(c1ccccc1)C(C#N)=C(N)O2 (centres undefined)	x	x	x	u	37	x	0.76	x	1.2
O=C(Cc1n[nH]c(=O)[nH]c1=O)N/N=C/CCc1ccccc1	5	3	-2.2	u	4	8.5	x	i	-3.9
C[C@@H]1CN([C@@H](C)CO)C(=O)c2cc(-c3ccccc3F)cnc2O[C@@H]1CN(C)C(=O)c1ccccn1	-5	-3	-3.1	x	x	2.3	x	i	x
Cc1noc(C)c1NC(=O)N(C)C[C@@H]1OCCCC[C@@H](C)Oc2ccc(N(C)C)cc2C(=O)N([C@@H](C)CO)C[C@@H]1C	2	5	-2.2	x	x	1.4	x	i	x
CCc1nc2ccccc2[nH]1	-1	-8	0.4	-6%	-9	3.2	0.66	i	0.8
CCCCNC(=O)Nc1nnc(C(C)(C)C)s1	-16	-5	-2.2	x	-2	-1.2	0.65	i	-2.8
C[C@@H]1CCCCO[C@H](CN(C)Cc2ccc(Cl)c(Cl)c2)[C@@H](C)CN([C@@H](C)CO)C(=O)c2cc(NC(=O)CCC(F)(F)F)ccc2O1	-10	-21	8.5	x	x	3.3	x	i	x
Cc1ccc(S(=O)(=O)NC(=O)C2(C)CCN2C(=O)Cc2cc(F)ccc2F)nc1 (centres undefined)	14	26	1.2	x	x	-1.4	x	i	-0.6
CCn1ncc(Br)c1C(=O)Nc1ccc(C(=O)OC(C)C)cc1	x	x	x	21%	-2	x	0.64	x	-1.9
CCCc1nnc(NC(=O)CN2C(=O)c3ccccc3C2=O)s1	x	x	x	-13%	-2	x	0.76	x	-1.4
CSCCC(NC(=O)c1ccco1)C(=O)OCC(=O)Nc1sccc1C#N (centres undefined)	x	x	x	11%	40	x	0.64	x	x
CS(=O)(=O)N1CCN(C(=O)c2ccc(Br)s2)CC1	x	x	x	-3%	-3	x	0.74	x	-3.9
Cc1cccc(NC(=O)c2nc(-c3ccccc3)n(-c3ccccc3)n2)c1C	x	x	x	-1%	-12	x	0.71	x	-2.6
Clc1cccc(-c2csc(Nc3cccnc3)n2)c1	3	4	-2.2	-5%	x	1.7	0.71	i	-3.1
CCC(=O)N1CC[C@H]2[C@@H]1c1cc(-c3ccccc3)ccc1N(C)[C@H]2CO	-5	-5	-3.1	x	x	-5.9	x	i	x
CC(=O)N1[C@@H]2Cn3c(ccc(C4=CCCCC4)c3=O)[C@H]1[C@@H](C(=O)N[C@@H](C)c1ccccc1)[C@@H]2CO	1	11	1.9	x	x	-0.2	x	i	x
O=C(Cc1ccc(NC(=O)C2CCN(C(=O)C3CCC3)CC2)cc1)Nc1cccc(C(=O)N2CCCCC2)c1	9	2	2.4	-3%	x	2.6	0.65	i	2.7
Cn1nc(-c2ccccc2)cc1NS(=O)(=O)c1ccc(C#N)cc1	5	3	-1.7	-3%	-6	-3.0	0.68	i	2.9
CN1c2ccc(Br)cc2[C@H]2[C@H](CCN2C(=O)Cc2cccnc2)[C@@H]1CO	-2	0	-3.0	x	x	-5.7	x	i	x
COc1cccc(C2C(C(=O)OCc3ccccc3)=C(C)Nc3ncnn32)c1OC (centres undefined)	0	-9	2.7	0%	-6	-2.7	0.8	i	1.0
CCN(CC)C(=O)C1=C(C)N(Cc2ccc(C(C)(C)C)cc2)C(=O)C(CC(=O)NC2CCCCC2)C1 (centres undefined)	x	x	x	3%	x	1.4	x	i	-5.6
CCC(C)(C)NC(=O)C(c1ccc(F)cc1)N(Cc1ccco1)C(=O)c1snc(C(N)=O)c1N (centres undefined)	x	x	x	-4%&-1%	-17	x	0.7	x	2.5
CCC(C(=O)OCCOCCN(CC)CC)c1ccccc1 (centres undefined)	18	4	0.4	-2%	4	3.0	0.61	i	-2.3
CCN1C(=O)[C@H]2[C@@H](c3ccc(C)cc3)N3C(=O)N(c4cccc(Cl)c4)C(=O)[C@@]3(C)[C@H]2C1=O	-1	5	6.2	x	x	-1.3	x	i	0.0
CC(/C=N/N1CCN(c2ccccc2)CC1)=C\c1ccco1	2	6	0.6	6%	1	1.8	x	i	0.4
COCC#Cc1ccc2c(c1)O[C@@H](CN(C)C(C)=O)[C@@H](C)CN([C@@H](C)CO)S2(=O)=O	3	9	1.6	x	x	-5.5	x	i	x
